gsp antagonist: antagonists of gsp mutant (McCune-Albright syndrome) | 340,000 compounds, 0.4% hits | gsp-mutant cells, cAMP HTRF, 30 min; control for the full effect not named in the record | Potency, µM (titrated, usually from 76.9 µM), without a hit: at the top dose activity change, negative = inhibition, actives largely listed as inhibitors; active = falling curve of any shape with a large fitted effect; inconclusive = falling curve, mostly with a smaller effect; inactive = flat or rising curve; cell line not stated here;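 also: intracellular cAMP measured with PDE inhibitor Ro 20-1724 present during compound exposure; potency is read from the fitted curve at half-maximal effect; % is scaled to controls: 0 for no effect and ±100 for the full control effect; nearly all actives have a fitted effect of over 65% in size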
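Measurement of cellular cAMP by homogeneous time-resolved fluorescence following a 30 min compound exposure at 37C. The PDE inhibitor […] was present throughout; the assay buffer was DPBS with 0.05% BSA and 0.005% Tween 20.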
TRPV1 PAM: human TRPV1 potentiation; Q8NER1; TRPV1-expressing cells, Fluo-8 calcium influx, capsaicin EC20 potentiation; host cell line not named in the record; control for the full effect not named in the record; potentiation, % at 8.33 µM; 320,000 compounds, 0.02% hits; AID 540277; active means potentiation above 80%; inconclusive means 30% to 80%; inactive means below 30%; also: 0% is about no effect
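Cells expressing TRPV1 were dye-loaded with Fluo-8 and read kinetically: 10 s baseline, 3 min after compound (agonist portion), then 2 min after EC20 capsaicin (allosteric enhancer portion). Calcium-bound dye fluorescence at 480/520 nm.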
Menin-MLL FL inh: inhibitors of human menin-MLL interaction, wild-type MLL peptide. Fluorescence polarization, fluorescein-MLL peptide displacement from menin. 290,000 tested, under 10 active. FP activity change, % at 61.4 µM; inconclusive = falling polarisation curve, or a change in total fluorescence; inactive = total fluorescence flat and polarisation flat or rising; no compound was filed as active; the % refers to the polarisation; negative = inhibition;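 also: % of control where 0% means no effect; inhibitors lower the polarisation; unlabelled MLL peptide was the positive control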
Sfp PPTase inh: Sfp phosphopantetheinyl transferase inhibition; Q9F4F7; 310,000 compounds, 3.5% hits; Biochemical Sfp PPTase activity, qHTS; Potency, µM, inactives show max response, negative = inhibition, actives largely listed as inhibitors; AID 1490; active = well fitted inhibition curve with a large enough effect; inconclusive = small, poorly fitted or top-dose-only effect, or another doubt; inactive = no such curve, though single readings can be large or run the other way;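 also: the enzyme is Sfp with the accession as filed and its product quenches rhodamine fluorescence; potency is read from the fitted curve at half-maximal effect; 0% = enzyme reaction without inhibitor and -100% = no enzyme wells; top concentration of the series not given in the record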
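Fluorescence-quenching assay with 15 nM Sfp, 5 uM rhodamine-CoA and 12.5 uM BHQ-2-labelled ybbR peptide in pH 7.6 Hepes/MgCl2 buffer. Enzyme was pre-incubated with compound for 15 min at room temperature. Rate was taken from the 30-min fluorescence change (525/598 nm).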
gsp ag: gsp mutant agonism. 340,000 compounds, 0.13% hits. AID 624287. gsp mutant cells, cAMP HTRF, 30 min; control for the full effect not named in the record. Potency, µM (doses to about 76.9 µM), without a hit: at the top dose activation (cAMP increase), actives largely listed as activators; active = well fitted activation curve with a large enough effect; inconclusive = small, poorly fitted or top-dose-only effect, or another doubt; inactive = no such curve, though single readings can be large or run the other way; cell line not stated here;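 also: phosphodiesterase inhibitor Ro 20-1724 added with compounds to block cAMP breakdown; potency is read from the fitted curve at half-maximal effect; nearly all actives have a fitted effect of over 60% in size; about a fifth of the inactives were tested at one dose only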
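Cells in DMEM/10% FBS with G418 were pretreated with compounds in DMSO plus […] (300 uM stock) for 30 min at 37C. cAMP was measured by HTRF (cAMP-d2 plus anti-cAMP antibody-K) after 30 min at room temperature.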
TRPML1 inh: human mucolipin-1 channel inhibition; Q9GZU1; TRPML1-inducible cells, Ca2+ dye fluorescence, FDSS; stronger effect = lower value; inhibition of EC80 agonist-evoked calcium signal; activity change, negative = inhibition, % (no concentration beside the values); 390,000 compounds, 0.02% hits; AID 624415; in the data active means activity change below about -50%; inconclusive means about -30% to -50%; inactive means above about -30%;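 also: stimulus is agonist 54-4 at its EC80 concentration; % is scaled to controls: 0 for no effect and ±100 for the full control effect; compound concentration not given in the record; the text of the record puts the active cut at -80%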
Target sequence (Q9GZU1 whole entry, looked up): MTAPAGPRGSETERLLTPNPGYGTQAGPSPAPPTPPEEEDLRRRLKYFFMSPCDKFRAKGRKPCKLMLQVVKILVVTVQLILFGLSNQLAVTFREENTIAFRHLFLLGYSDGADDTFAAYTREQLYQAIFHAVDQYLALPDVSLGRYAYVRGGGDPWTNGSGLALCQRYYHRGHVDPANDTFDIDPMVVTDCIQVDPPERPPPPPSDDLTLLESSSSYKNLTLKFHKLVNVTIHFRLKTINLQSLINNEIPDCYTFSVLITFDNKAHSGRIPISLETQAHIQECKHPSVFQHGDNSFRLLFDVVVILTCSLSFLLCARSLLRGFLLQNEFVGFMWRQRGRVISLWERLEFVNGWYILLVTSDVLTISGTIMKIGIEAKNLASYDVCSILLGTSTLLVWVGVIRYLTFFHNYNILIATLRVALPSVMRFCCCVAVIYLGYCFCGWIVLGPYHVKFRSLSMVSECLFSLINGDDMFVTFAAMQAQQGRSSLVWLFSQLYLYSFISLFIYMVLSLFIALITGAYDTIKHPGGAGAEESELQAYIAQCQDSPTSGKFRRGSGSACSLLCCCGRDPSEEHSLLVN
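Calcium fluorescence in TRPML1-DL cells induced overnight with Tet: a 110 s read after compound pin addition, then a 110 s antagonist read after challenge with 54-4 at 4 uM final (EC80).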
ClpP mod: qHTS Assay for Activators of ClpP | ATP-dependent Clp protease proteolytic subunit (Bacillus subtilis (strain 168)), P80244 | purified B. subtilis ClpP, FRET peptide cleavage, 20 min | Potency, µM (doses to about 57.5 µM), for the others: top-dose activity change, negative = active | 340,000 compounds, 1.9% hits | AID 651965, 2013; active = well fitted falling curve with a large enough effect; inconclusive = small, poorly fitted or top-dose-only effect; inactive = no such curve, though single readings can be large or run the other way; also: potency is read from the fitted curve at half-maximal effect; the source files actives as falling curves though it sought activators and does not explain the sign; nearly all actives have a fitted effect of over 65% in size; many hits overshoot -100%
Target sequence (P80244 whole entry, looked up): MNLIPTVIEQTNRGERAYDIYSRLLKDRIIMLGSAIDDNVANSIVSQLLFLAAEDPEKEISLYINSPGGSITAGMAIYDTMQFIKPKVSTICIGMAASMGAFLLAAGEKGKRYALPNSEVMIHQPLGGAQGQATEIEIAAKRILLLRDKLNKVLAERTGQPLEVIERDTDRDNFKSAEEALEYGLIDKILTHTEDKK
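Purified B. subtilis ClpP, 10 microg/mL final in Tris/HCl pH8 with KCl, BSA, glycerol and Tween-20, cleaved an Abz/nitrotyrosine-quenched decapeptide. Fluorescence (ex 320, em 430) was read at 0 and 20 min at room temperature. Delta was normalized to 5.8 microM ADEP and DMSO/no-enzyme controls.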
The depositor's hits bear a star; u = inconclusive; x = not tested or not shown; & = joins results of further samples; [ ] = another dose, or the depositor's remark.

SMILES	gsp antagonist	TRPV1 PAM	Menin-MLL FL inh	Sfp PPTase inh	gsp ag	TRPML1 inh	ClpP mod
C/C(=N\NC(=O)c1cccc(N/N=C(\C)c2ccccc2)c1)c1ccccc1	-10%	-21	0.0	12%	1%[15.4 µM]	-5	0.3%
Cc1sc2ncn(CC(=O)N3CCN(c4ccccn4)CC3)c(=O)c2c1S(=O)(=O)N1CCCCC1	-14%	11	1.0	4%	19%[15.4 µM]	5	x
Cc1ccc(C2=CC(=O)C[C@H](c3ccc(F)cc3)C2)cc1	-10%	5	x	x	-27%	28	-2.3%
Clc1ccc(N2CCN(/N=C/c3cccnc3)CC2)cc1	10%	-19	1.6	4%	-28%	x	-1.5%
CC1(C)Cc2c(C#N)c(N3CCN(C(=O)c4ccco4)CC3)nc(Cc3ccccc3)c2CO1	-3%	-9	8.2	-5%	20%	-4	28µM*
CCCn1c(SCC(=O)N2CCCCC2)nnc1-c1ccccn1	x	4	-2.1	14%	x	x	x
CN(C)c1oc(-c2ccco2)nc1S(=O)(=O)c1ccc(Br)cc1	2%	-7	x	x	3%	11	1.0%
CN(CC(=O)Nc1ccc(N2CCOCC2)cc1)C(=O)c1ccc(CS(C)(=O)=O)cc1	-3%	x	x	x	-25%	6	x
CC(=O)c1c(C)[nH]c(C(=O)NNC(=O)COc2cc(C)cc(C)c2)c1C	7%	9	x	x	-12%	30	1.2%
O=C(CN1CCCC1c1cccs1)Nc1cc(S(=O)(=O)N2CCCC2)ccc1Cl (configuration not stated)	-14%	x	x	x	-11%	14	x
COCCNc1c2c(nc3c(-c4ccccc4)c(C)nn13)CCC2	u	-12	-1.4	-11%	14%[15.4 µM]	25	x
Cc1ccc(OCC(=O)N/N=C\c2cccn2C)c([N+](=O)[O-])c1	-13%	u	-2.9	14%	2%[15.4 µM]	9	x
Cc1cc2c(cc1S(=O)(=O)N1CC(C)CC(C)C1)OCC(=O)N2 (configuration not stated)	3%	12	0.8	4%	5%	-6	2.3%
COc1cc([N+](=O)[O-])ccc1NC(=O)CCCOc1cccc(C)c1	-2%	7	0.4	5%	9%	17	0.1%
Cc1ccccc1N1CCN(C2CCCN(C(=O)CCc3c(C)noc3C)C2)CC1 (configuration not stated)	-15%	4	0.5	-10%	-49%[inhibitor]	-9	-2.6%
COc1ccc(N2C(=O)CCC(C(=O)Nc3cccc(C)n3)C2c2ccc(OC)c(OC)c2)cc1 (configuration not stated)	-3%	-25	8.7	7%	-11%	-3	-0.8%
CC1=C(C(=O)OC(C)C)C(c2ccc(O)cc2)NC(=O)N1 (configuration not stated)	6%	18	-4.5	5%	-29%	-3	x
CC(C(=O)N=Nc1c(O)[nH]c2ccccc12)n1cnc2ccccc2c1=O (configuration not stated)	1%	15	x	-20%	-8%	-1	3.6%
Cc1ccc2oc(=O)c3cnn(CC(=O)NCCCOC(C)C)c3c2c1	4%	3	-2.1	7%	-71%[inhibitor]	-11	1.3%
COc1ccc(-c2noc(CCC(=O)Nc3ccc(C)c(C)c3)n2)cc1	-31%	20	0.0	13%	-6%	4	0.5%

5 of these compounds in a different format.
Molecule,gsp antagonist,TRPV1 PAM,Menin-MLL FL inh,Sfp PPTase inh,gsp ag,TRPML1 inh,ClpP mod
COc1cc([N+](=O)[O-])ccc1NC(=O)CCCOc1cccc(C)c1,-2%,7,0.4,5%,9%,17,0.1%
O=C(CN1CCCC1c1cccs1)Nc1cc(S(=O)(=O)N2CCCC2)ccc1Cl (configuration not stated),-14%,x,x,x,-11%,14,x
COc1ccc(-c2noc(CCC(=O)Nc3ccc(C)c(C)c3)n2)cc1,-31%,20,0.0,13%,-6%,4,0.5%
COCCNc1c2c(nc3c(-c4ccccc4)c(C)nn13)CCC2,u,-12,-1.4,-11%,14%[15.4 µM],25,x
Cc1ccc(OCC(=O)N/N=C\c2cccn2C)c([N+](=O)[O-])c1,-13%,u,-2.9,14%,2%[15.4 µM],9,x

(next part)
SMILES	gsp antagonist	TRPV1 PAM	Menin-MLL FL inh	Sfp PPTase inh	gsp ag	TRPML1 inh	ClpP mod
CC(C)C[C@H](NC(=O)c1ccc(OC2CCN(C(=O)C3CC3)CC2)cc1)C(N)=O	6%	-1	2.3	8%	-5%	-9	x
COc1ccc(/C=N/NC(=S)Nc2cccc(C(=O)O)c2)cc1	-3%	-10	0.9	-25%	-1%[15.4 µM]	23	x
CC(C)Oc1ccc(/C=N/NC(=O)c2ccc(N(Cc3ccccc3)S(C)(=O)=O)cc2)cc1	5%	-3	3.5	9%	0%	23	-18%
CC(OC(=O)Cc1ccc(F)cc1)C(=O)N1CCc2ccccc21 (configuration not stated)	1%	-4	x	x	-37%	4	0.6%
O=C(COC(=O)C1CC(=O)N(Cc2ccco2)C1)Nc1ccc(F)cc1F (configuration not stated)	-7%	x	x	x	u	-3	-1.0%
C#Cc1ccc([C@H]2C=C(C(=O)Nc3ccccc3)O[C@@H](OCc3ccc(CO)cc3)C2)cc1	-18%	-12	3.8	-2%	x	10	-5.5%
CC(=O)N1c2ccc(S(=O)(=O)N3CCC(C(=O)Nc4ccc(C)cn4)CC3)cc2CC1C (configuration not stated)	-6%	15	3.0	20%	u	-4	-0.5%
O=C1C=C(c2ccccc2)C(O)(c2ccccc2)C1 (configuration not stated)	4%	-22	-0.9	2%	1%	1	0.9%
CO/N=C(\C(=O)N[C@@H]1C(=O)N2C(C(=O)O)=C(COC(N)=O)CS[C@H]12)c1ccco1	2%	8	1.3	-11%	x	-1	0.1%
CCCn1nnnc1NCc1ccc(F)cc1	-13%	-4	-2.1	-3%	1%	5	0.0%
CC(=O)Nc1cc2c(cc1NC(=O)Cn1nnc(-c3ccc(C)o3)n1)OCCO2	x	-7	-0.2	-1%	3%[15.4 µM]	9	x
O=C(Nc1ccc(S(=O)(=O)N2CCOCC2)cc1)c1ccc([N+](=O)[O-])s1	-5%	-6	x	x	10%[15.4 µM]	25	x
O=C(Cn1cccc1C(=O)c1ccccc1)NCc1ccc(F)cc1	0%	22	6.4	11%	20%	-4&4	0.0%&1.3%
CCC1CCCCN1CCCNC(=O)c1nn(C)c2c1CS(=O)(=O)c1ccccc1-2 (configuration not stated)	-7%	-1	x	11%	8%	10	-9.1%
Cc1ccc(NS(=O)(=O)c2cccc(C(=O)NC3CCN(Cc4ccccc4)CC3)c2)c(C)c1	u	x	x	x	5%	-4	1.8%
O=C(Cc1cccc2ccccc12)Nc1ccc(O)cc1C(=O)O	6%	21	-0.5	1%	-2%[15.4 µM]	-8	-3.7%
Cc1ccc2c(c1)C1CC(C)(O2)N(c2cccc(C(=O)NC3CCN(Cc4ccccc4)CC3)c2)C(=O)N1 (configuration not stated)	-7%	-9	-2.2	11%	-21%	4	0.2%
O=C(COC(=O)c1ncc(Cl)c(Cl)c1Cl)NC1CCCCCC1	1%	-46	x	x	u	-4	-1.2%
O=C(O)CCCN1C(=O)C2C3C=CC(C2C1=O)C1C(=O)N(CCCC(=O)O)C(=O)C31 (configuration not stated)	6%	3	-3.5	10%	7%[15.4 µM]	33	-20%
CCCCSc1nnc2c(n1)OC=Nc1ccccc1-2	-4%	-1	-0.8	7%	30%	5	3.3%

Retrieved one by one from above, three records:
SMILES	gsp antagonist	TRPV1 PAM	Menin-MLL FL inh	Sfp PPTase inh	gsp ag	TRPML1 inh	ClpP mod
CC(OC(=O)Cc1ccc(F)cc1)C(=O)N1CCc2ccccc21 (configuration not stated)	1%	-4	x	x	-37%	4	0.6%
O=C(Nc1ccc(S(=O)(=O)N2CCOCC2)cc1)c1ccc([N+](=O)[O-])s1	-5%	-6	x	x	10%[15.4 µM]	25	x
C#Cc1ccc([C@H]2C=C(C(=O)Nc3ccccc3)O[C@@H](OCc3ccc(CO)cc3)C2)cc1	-18%	-12	3.8	-2%	x	10	-5.5%

Next section.
SMILES	gsp antagonist	TRPV1 PAM	Menin-MLL FL inh	Sfp PPTase inh	gsp ag	TRPML1 inh	ClpP mod
Cc1ccc(-c2nnn(CC(=O)N(CCN3CCOCC3)C(C(=O)NC(C)(C)C)c3ccco3)n2)cc1 (configuration not stated)	-3%	4	-2.5	15%	-6%	-8	x
O=C(O)CC(c1ccc(Br)cc1)N1Cc2ccccc2C1=O (configuration not stated)	4%	22	4.8	15%	17%	25	x
CN(C)c1ccc(NC(=O)CSc2nc(N)c(C(=O)Nc3ccc(N(C)C)cc3)s2)cc1	u	-14	-2.4	-8%	2%	50	3.2%
Cc1ccccc1OCC(=O)OC(C(=O)c1ccccc1)c1ccccc1 (configuration not stated)	3%	0	6.2	10%	5%[15.4 µM]	-1	x
O=C(O)c1cc(S(=O)(=O)Nc2cccc3ccccc23)c(Cl)cc1Cl	1%	5	3.0	-12%	-7%[15.4 µM]	31	-3.1%
Cc1occc1C(=O)NC1CCCN(Cc2ccc(CC(C)C)cc2)C1 (configuration not stated)	14%	-22	-0.8	10%	-23%	-2	1.8%
Cc1ccc(-n2ncc(C(=O)NCc3ccc4c(c3)OCO4)c2NC(=O)c2ccco2)cc1C	-8%	-9	-0.8	11%	-58%	33	-0.6%
COc1ccc(C(=O)Nc2ccc(S(=O)(=O)Nc3nccnc3OC)cc2)cc1OC	3%	21	2.9	10%	-8%	14	0.9%
CCN(CC)C(=O)Nc1c(C)n(C)n(-c2ccccc2)c1=O	2%	-8	1.0	-9%	18%	0	-2.1%
O=C(NCc1cccnc1)C1c2ccccc2C(=O)N1Cc1ccco1 (configuration not stated)	-4%	-25	1.3	-20%	10%	-9	-4.6%
O=c1cc(N2CCc3ccccc3C2)[nH]c(=O)n1-c1ccccc1Cl	1%	13	6.1	-4%	-3%	-6	-2.7%
Cc1nc(N2CCN(c3ccccn3)CC2)c2c(C)c(C(=O)Nc3ccc(Br)cc3C)sc2n1	-20%	11	0.3	10%	-2%	1	3.9%
CCN(Cc1cnn(C)c1)C(=O)c1ccc2nc(Cc3cccc(Cl)c3)oc2c1	u	5	2.9	-5%	-7%	5	x

Screens deposited in PubChem by National Center for Advancing Translational Sciences (NCATS).
